FGF22 binding – binders of recombinant human FGF22 by thermal shift. SYPRO orange fluorescence; percent of sucrose octasulfate shift, DMSO zero. calls only at 9.99 µM. 340,000 compounds, 1.5% hits. AID 651658;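 active = melting point raised past a set limit in the mean and every replicate; three in four hits are not shown here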
Target sequence (Q9HCT0 whole entry, looked up): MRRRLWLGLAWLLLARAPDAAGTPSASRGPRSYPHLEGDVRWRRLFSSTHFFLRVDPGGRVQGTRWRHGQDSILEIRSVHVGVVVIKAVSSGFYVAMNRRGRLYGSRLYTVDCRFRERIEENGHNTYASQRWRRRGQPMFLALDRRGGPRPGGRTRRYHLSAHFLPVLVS
E coli growth – inhibitors of Escherichia coli growth; OD600, 23 h; active compounds read low; 330,000 compounds, 0.21% hits; AID 1053175; OD600 absorbance (no concentration beside the values);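 active = OD600 absorbance below the run mean of sample wells minus 3.6 SD, in any replicate, cut at about 0.56 in these data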;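 also: stock transfer was 300 nL into about 60 µL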
UCH37 DUB inh – inhibitors of human deubiquitinating enzyme UCH37. inhibition, % (no concentration beside the values). Q9Y5K5. 330,000 compounds, 0.33% hits. purified proteasome/UCH37, Ub-AMC cleavage fluorescence;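 active = mean of two replicates above 20%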;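 also: 0% = compound-free wells with enzyme and 100% = wells lacking proteasome; stock transfer was 100 nL into about 20 µL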
Target sequence (Q9Y5K5 whole entry, looked up): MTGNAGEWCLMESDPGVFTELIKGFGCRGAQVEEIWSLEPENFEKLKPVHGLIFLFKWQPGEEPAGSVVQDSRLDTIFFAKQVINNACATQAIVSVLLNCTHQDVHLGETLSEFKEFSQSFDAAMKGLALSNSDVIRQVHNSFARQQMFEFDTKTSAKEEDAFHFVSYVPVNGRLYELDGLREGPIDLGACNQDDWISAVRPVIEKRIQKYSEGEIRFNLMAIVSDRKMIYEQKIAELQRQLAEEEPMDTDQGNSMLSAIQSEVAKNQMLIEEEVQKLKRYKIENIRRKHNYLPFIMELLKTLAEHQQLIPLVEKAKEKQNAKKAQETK
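Signal – fluorescence, ex 355 nm, em 460 nm · System – Proteasome-bound UCH37 · Input – 0.15 nM proteasome as dispensed · Timing – 30 min preincubation with enzyme, 25 min cleavage at room temperature · Read-out basis – percent inhibition of cleavage signal versus uninhibited and no-proteasome wells · Medium – Tris-HCl pH 7.4 with ATP-MgCl2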
MLL AF4-AF9 inh – inhibitors of human MLL-AF4/AF9 interaction. P42568. AlphaScreen, biotin-AF4 peptide binding to FLAG-AF9. inhibition, % at 10 µM. 350,000 compounds, 0.47% hits;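 active = every replicate reaching a set inhibition limit, whatever the replicate mean, cut at about 25% in these data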;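 also: 0% = plate neutral control median and 100% = total signal loss; the record names both 10 and 1 µM as test concentration; the first replicate is given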
Target sequence (P42568 whole entry, looked up): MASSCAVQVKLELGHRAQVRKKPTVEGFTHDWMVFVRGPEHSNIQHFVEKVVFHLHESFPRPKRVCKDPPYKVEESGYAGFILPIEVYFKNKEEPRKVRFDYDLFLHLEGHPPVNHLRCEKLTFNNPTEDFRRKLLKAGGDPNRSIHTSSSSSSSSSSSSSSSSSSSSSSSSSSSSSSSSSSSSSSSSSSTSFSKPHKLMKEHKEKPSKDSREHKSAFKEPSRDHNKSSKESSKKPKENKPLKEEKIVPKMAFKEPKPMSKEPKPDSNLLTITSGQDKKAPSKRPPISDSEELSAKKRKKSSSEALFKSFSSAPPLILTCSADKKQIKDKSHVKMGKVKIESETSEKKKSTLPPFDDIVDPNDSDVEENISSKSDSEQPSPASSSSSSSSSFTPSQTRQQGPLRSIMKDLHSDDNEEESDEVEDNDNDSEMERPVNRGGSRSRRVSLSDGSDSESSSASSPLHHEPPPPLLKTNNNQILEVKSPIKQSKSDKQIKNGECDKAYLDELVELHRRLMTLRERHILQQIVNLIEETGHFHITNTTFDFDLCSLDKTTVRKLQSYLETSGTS
Beta apoptosis – blocks beta cell apoptosis; 300,000 compounds, 0.8% hits; protection from apoptosis, % (test concentration not listed); INS-1E cytokine-induced death, ATP luminescence, 48 h; percent of positive-control rescue, neutral wells zero; AID 435005;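 active = all replicates at 75% or more, or half of them and the mean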;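 also: 0% = cytokine-treated negative control wells and 100% = positive control rescue; higher means more ATP so stronger rescue from cytokine killing; wells of about 40 µL received 100 nL stock; the first replicate is given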
T cruzi inh – blocks replication of Trypanosoma cruzi | 300,000 compounds, 1.4% hits | T. cruzi beta-gal in NIH3T3, luminescence, 90 h | inhibition, % (no concentration beside the values);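 active = mean inhibition across valid replicates above about 55%, limit read from the data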;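 also: signal also drops with host cell toxicity which is not excluded here; 0% = plate median of DMSO wells and 100% = zero luminescence signal; higher percent means less beta-gal luminescence so fewer parasites; stock transfer was 50 nL into about 50 µL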
rRNA inh HTS – selective bacterial rRNA inhibition in E. coli | E. coli WT GFP vs humanized-ribosome RFP mutants, fluorescence, 24 h; active compounds read low; DMSO median 0, no signal -100 | 350,000 compounds, 1.6% hits | GFP signal change (wild-type ribosome), % (concentration not given with the values);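 active = significant combined selectivity score with lowered wild-type GFP, culture density cut under 30%, mutant RFP and density less affected; inactive = any of these conditions unmet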; also: one replicate is shown; some compounds called inactive have numbers as strong as hits
A1 inh – inhibitors of the anti-apoptotic protein A1, read as caspase activation; MEF A1-2A-BIM cells, Caspase-Glo 3/7 luminescence, 3 h; percent of clofoctol response, vehicle zero; caspase activation, % (test concentration not listed); 330,000 compounds, 0.066% hits; AID 2462;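 active = over half of replicate activation scores above 10%, or exactly half above 10 with the replicate mean above 10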;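 also: wells of about 30 µL received 50 nL stock; many hits fall short of the cut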
rRNA inh HTS OD600 – recorded beside rRNA inh HTS, whose call it bears; OD600 change, %; measured here: OD600 growth;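 optical density of the mix in the first replicate; 0 = DMSO median and -100 = no signal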
rRNA inh HTS RFP – also measured in rRNA inh HTS; calls as there; RFP signal change, %; measured here: RFP humanized mutant strains;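 first replicate; 0 = DMSO median and -100 = no signal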
* = called active by the depositor; i = inactive; · = no result given.

SMILES	FGF22 binding	E coli growth	UCH37 DUB inh	MLL AF4-AF9 inh	Beta apoptosis	T cruzi inh	rRNA inh HTS	rRNA inh HTS OD600	rRNA inh HTS RFP	A1 inh
S=C(NCC1CCCO1)Nc1cccc2ccccc12 (stereo not given)	i	0.65	7.1	-1.6	-2	-1	20	1	2.1	-0.3
COc1ccc(C(=O)C2CCCN(C(=O)/C=C/c3cnc[nH]3)C2)c(C)c1 (stereo not given)	i	0.69	1.8	1.2	-3	1	-1	-5	0.3	-0.8
CCn1c(CNC(=O)c2cccnc2)cc2ccccc21	i	0.7	4.6	2.4	3	2	-5	6	5.8	-0.1
COC(=O)[C@H]1C[C@@H]1[C@H](NC(=O)[C@H]1C[C@@H]1[C@H](NC(=O)OCc1ccccc1)c1ccccc1)c1ccccc1	i	·	1.5	2.9	·	-5	-1	2	-7.8	0.4
CCCC(CCC(=O)Nc1ccc(C(=O)OCC)cc1)C(=O)O (stereo not given)	·	0.76	2.3	·	3	·	·	·	·	-0.8
CCCOc1cccc(C2C(C(=O)c3ccc(C)o3)=C(O)C(=O)N2c2nc(C)c(C(C)=O)s2)c1 (stereo not given)	i	0.74	-1.8	1.2	9	-10	-5	-6	3.1	0.1
O=C(COC(=O)c1ccccc1)c1ccc(Br)cc1	i	0.68	0.6	1.8	6	-13	0	-1	3.9	-5.1
COc1ccc(NC(=O)C2=C(C)Nc3nc(CCCO)nn3C2c2ccc(OC)c(OC)c2)cc1 (stereo not given)	i	0.7	5.0	-1.0	-3	-5	23	9	1.5	0.3
O=C(O)c1ccccc1NC(=O)C1CCN(S(=O)(=O)c2cccc3nsnc23)CC1	i	0.65	4.3	0.8	-2	-32	-5	-2	-2.7	0.4
Cc1cccc(NC(=S)NNC(=O)COc2ccc(Cl)cc2Cl)c1	i	0.69	3.8	-6.6	4	-12	-58	-78	-22	0.5
CCCCC(=NCCc1c(C)[nH]c2ccccc12)C1=C(O)CC(c2ccccc2)CC1=O (stereo not given)	i	0.74	4.4	2.3	10	29	-3	5	9.1	0.1
O=c1cc(CSc2nc3ccccc3[nH]2)c2ccccc2[nH]1	i	0.63	2.3	1.1	-1	5	-45	-44	-11	-0.4
Nn1c(SCC(=O)Nc2nccs2)nnc1-c1cccnc1	i	0.69	-0.6	2.1	0	·	7	8	0.6	-0.2
COc1ccccc1CCNC(=O)C(=O)Nc1cc2c3c(c1)C(C)C(=O)N3CCC2 (stereo not given)	i	0.66	-0.2	4.6	6	13	-14	-23	-4.6	0.8
Nc1cc(C(=O)OCC(=O)N2CCCC2)ccc1Cl	·	0.69	-15	·	-3	-13	·	·	·	-0.3
CCC(C)(C)n1nnnc1C(c1cc2cccc(C)c2[nH]c1=O)N1CCCC1 (stereo not given)	·	0.7	-8.2	·	-7	-6	6	3	-1.3	-0.4
CCn1c(SCC(=O)N=Nc2c(O)[nH]c3ccccc23)nnc1-c1ccc(C(C)(C)C)cc1	·	0.68	3.8	·	-2	-17	·	·	·	-0.1
O=C(CCCOc1ccc(Cl)cc1Cl)NCc1ccccn1	·	0.72	3.1	·	-6	6	·	·	·	-0.2
CCOc1ccccc1NC(=O)C(c1ccccc1)N1CCN(CC(=O)N2CCCC2)CC1 (stereo not given)	i	0.71	1.9	-1.8	-3	·	-3	-7	12	-1.5
O=C(Cn1c(O)c(/C=C2\C=Nc3ccc(Br)cc32)sc1=O)N1CCCC1	·	0.7	14	·	6	18	·	·	·	0.2
CCN(CC)C(=O)CSc1nc(OC)cc(=O)[nH]1	i	0.69	4.2	2.3	-1	-15	3	3	-8.2	0.6
Cc1cc(C(F)F)n2nc(C(=O)Nc3ccc(S(=O)(=O)NC45CC6CC(CC(C6)C4)C5)cc3)nc2n1	·	0.73	-14	·	8	15	·	·	·	0.2
CC(OC(=O)c1ccc(Cl)nc1)C(=O)N1CCc2ccccc21 (stereo not given)	i	0.61	1.2	2.5	-4	-6	2	3	0.8	-0.2
C=COc1ccc(N2C(=O)c3ccccc3OC2C)cc1 (stereo not given)	i	0.62	3.1	-4.3	-4	6	3	0	-11	0.5
COc1ccc(S(=O)(=O)NCCc2c[nH]c3ccc(Cl)cc23)cc1	i	0.67	3.2	0.8	-3	-10	-51	-74	-8.1	1.3
CN(CC(=O)Nc1ccccc1Br)C(=O)c1ccccc1Sc1ccccc1C#N	i	0.68	2.8	4.5	·	·	-34	-39	-4.8	·
O=C(NC(=S)Nc1cccc(O)c1)c1ccco1	i	·	·	1.3	-8	-15	3	7	-1.1	-2.5
COc1ccc(NC(=O)CSc2nncs2)cc1S(N)(=O)=O	i	0.7	1.1	-5.7	-3	4	1	14	0.8	-0.1
CC(=O)N1CCN(CC(=O)Nc2cccc(S(=O)(=O)N3CCCCC3)c2)CC1	i	0.65	3.8	2.2	-5	·	-2	0	-9.9	1.3
CCN(Cc1ccccc1)C(=O)c1ccc(N(C)S(=O)(=O)c2ccc(C)cc2)cc1	i	0.72	2.7	-4.6	4	27	3	-34	2.8	-0.5
COc1ccc(S(=O)(=O)N2CCN(Cc3cccc(F)c3)CC2)cc1	i	0.63	1.0	·	1	18	-19	0	-0.4	-0.8
CC(C)NC(=O)CCCn1cc([N+](=O)[O-])cn1	i	0.69	0.6	2.4	-4	-4	6	-15	-2.4	-0.3
Cc1occc1-c1nnc(SCC(=O)NC2(C#N)CCCC2)n1C	i	0.67	4.3	4.6	·	·	6	8	-0.8	·
COc1ccc(S(=O)(=O)Oc2ccc3ccccc3c2)cc1	i	0.72	2.2	-8.2	0	5	-23	-19	-0.2	0.5
COC1CCN(Cc2c(C(=O)N3C[C@@H](C)O[C@@H](C)C3)nc3ccc(Cl)cn23)CC1	i	0.68	2.6	0.3	1	-2	0	8	-1.9	0.0
COc1ccc(C(=O)NC(C)c2cnn(-c3ccccn3)c2C)o1 (stereo not given)	i	0.7	5.6	1.4	-2	2	-13	-10	-3.7	-0.8
CCCCCSc1nc2c(c(=O)[nH]c(=O)n2C)n1CCc1ccccc1	i	0.8	4.0	0.0	-1	33	6	7	-1.1	-1.1
COC(=O)COc1nc(C)c2c(c1C#N)CC(C)(C)OC2	·	0.73	3.3	·	1	-9	·	·	·	-0.3
COc1ccc(C2=NN(C(=O)CSc3nccn3C)C(c3ccco3)C2)cc1 (stereo not given)	i	0.71	6.1	4.7	3	·	-7	-4	5.8	0.4
CCOc1ccc(C(=O)Nc2cc(NC(=O)c3ccc(OCC)c(Cl)c3)cc(C(=O)O)c2)cc1Cl	i	0.74	-6.9	-2.1	·	2	-33	-28	4.3	·
CCc1cc(=S)n2c([nH]c3ccccc32)c1C#N	·	0.62	-39	·	-3	-8	·	·	·	-1.2
CCN1C(=O)/C(=C\N(C)C)S/C1=N\S(=O)(=O)c1ccccc1	i	·	·	-1.6	-4	-9	6	-19	-2.4	0.0
CCN1/C(=C\C=C2\C(=O)N(C)C(=S)N2C)Sc2ccccc21	·	0.73	7.2	-1.7	8	31	9	14	30	0.5
COc1cc(C2CC(=O)c3c(O)cc(O)cc3O2)ccc1O (stereo not given)	i	0.69	1.2	-1.4	-9	-7	·	·	·	1.8
CCOc1ccc(S(=O)(=O)NC2CC2)cc1C(N)=O	·	0.71	4.8	-0.8	-7	-13	8	15	-0.4	0.5

Two entries drawn at random from those above:
SMILES	FGF22 binding	E coli growth	UCH37 DUB inh	MLL AF4-AF9 inh	Beta apoptosis	T cruzi inh	rRNA inh HTS	rRNA inh HTS OD600	rRNA inh HTS RFP	A1 inh
COC1CCN(Cc2c(C(=O)N3C[C@@H](C)O[C@@H](C)C3)nc3ccc(Cl)cn23)CC1	i	0.68	2.6	0.3	1	-2	0	8	-1.9	0.0
CCOc1ccc(S(=O)(=O)NC2CC2)cc1C(N)=O	·	0.71	4.8	-0.8	-7	-13	8	15	-0.4	0.5

Full records from above. Screens in order: FGF22 binding, E coli growth, UCH37 DUB inh, MLL AF4-AF9 inh, Beta apoptosis, T cruzi inh, rRNA inh HTS, rRNA inh HTS OD600, rRNA inh HTS RFP, A1 inh
Entry for COC(=O)COc1nc(C)c2c(c1C#N)CC(C)(C)OC2 → ·, 0.73, 3.3, ·, 1, -9, ·, ·, ·, -0.3
Entry for CCc1cc(=S)n2c([nH]c3ccccc32)c1C#N → ·, 0.62, -39, ·, -3, -8, ·, ·, ·, -1.2
Entry for COc1ccc(S(=O)(=O)Oc2ccc3ccccc3c2)cc1 → i, 0.72, 2.2, -8.2, 0, 5, -23, -19, -0.2, 0.5
Entry for CCN1/C(=C\C=C2\C(=O)N(C)C(=S)N2C)Sc2ccccc21 → ·, 0.73, 7.2, -1.7, 8, 31, 9, 14, 30, 0.5
Entry for COc1cc(C2CC(=O)c3c(O)cc(O)cc3O2)ccc1O (stereo not given) → i, 0.69, 1.2, -1.4, -9, -7, ·, ·, ·, 1.8

The listing continues.
SMILES	FGF22 binding	E coli growth	UCH37 DUB inh	MLL AF4-AF9 inh	Beta apoptosis	T cruzi inh	rRNA inh HTS	rRNA inh HTS OD600	rRNA inh HTS RFP	A1 inh
COc1cccc(-c2nn(Cc3ccccc3)cc2CO)c1	i	0.69	-0.4	-3.1	-4	-10	7	3	1.7	-0.2
O=C(CCc1ccccc1)NNC(=O)Nc1ccc(F)c(Cl)c1	i	0.68	4.5	-2.4	-8	-16	-4	2	4.1	0.8
O=C(COc1ccccc1)N1CCN(S(=O)(=O)c2ccc(Br)cc2)CC1	i	0.72	1.6	2.7	-7	-7	-1	-2	-2.2	-0.2
CCc1nc2sc3c(O)cc(=O)[nH]c3c2cc1C	·	0.65	-80	-2.3	-2	-2	2	1	2.9	-0.2
O=C(O)CCN1C(=O)C2CCCCC2C1=O (stereo not given)	·	0.71	4.0	·	-4	-15	·	·	·	0.1
O=C(Nc1ccc(N2CCOCC2)cc1N1CCOCC1)c1cccs1	·	0.7	2.5	·	-3	-5	·	·	·	0.9
O=C(NCc1cccs1)C(Cc1ccccc1)NS(=O)(=O)c1cccs1 (stereo not given)	·	0.73	-2.8	·	2	-8	·	·	·	-0.3
COC(=O)[C@H](Cc1ccccc1)NC(=O)Cn1ccc(NC(=O)OCc2ccccc2)nc1=O	i	·	-3.6	-0.3	2	·	-9	-8	-6.6	-0.6
CCn1cc(CN2CCC(C(=O)Nc3cccc(-c4cscn4)c3)CC2)cn1	i	0.64	6.2	1.5	0	-7	13	7	1.3	0.1
CN(CC(=O)Nc1ccccc1Cl)C(=O)c1ccc(N2CCCCCC2)c([N+](=O)[O-])c1	i	0.69	6.7	13	0	·	-23	-48	-7.0	-0.6
Cc1cccc(CCNC(=O)c2cc(=O)[nH]c3ccc(Br)cc23)c1	·	0.73	5.8	·	-6	-14	·	·	·	-0.1
CCS(=O)(=O)N1CCCC(C(=O)NC2CCCC2)C1 (stereo not given)	·	0.74	-2.3	·	-2	-13	·	·	·	-0.3
CC(C)c1ccc(/C=N/n2cnnc2)cc1	i	·	·	-2.5	0	19	8	-2	2.8	0.3
CN(C)S(=O)(=O)c1cccc(C(=O)Nc2cc(S(=O)(=O)N3CCOCC3)ccc2N2CCCC2)c1	i	0.72	4.4	-3.3	·	·	2	4	-1.1	·
O=S(=O)(Nc1c(F)cccc1F)c1ccc2c(c1)OCCO2	i	0.7	0.2	-4.4	-2	-8	7	-1	-1.2	1.1
COCCNC(=O)C1CC(c2cccc(F)c2)=NO1 (stereo not given)	i	0.64	-1.4	19	-10	-26	12	24	13	-1.1

Assay outcomes as filed in PubChem.

Some of the compounds tested; count on the stated rates, not on these rows.
